Bfl-1 A1 inh: caspase 3/7 activation in MEF A1-2A-BIM cells, primary screen, A1 inhibitor project, cell-based, luminescence, HTS. Caspase-Glo 3/7 luminescence, 3 h; percent of clofoctol response, vehicle zero. caspase activation, % (test concentration not listed). 0.066% of 330,000 active. AID 2462, 2010;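 active means over half of replicate activation scores above 10%, or exactly half above 10 with the replicate mean above 10; inconclusive means replicate mean below 10 yet half the replicates above 10; inactive means over half of replicates below 10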;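 further: wells of about 30 µL received 50 nL stock; many hits fall short of the cut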
UCH37 inh: inhibitors of human UCH37 deubiquitinase, primary screen, biochemical, Ub-AMC cleavage, fluorescence | inhibition, % (concentration not given with the values) | Ubiquitin carboxyl-terminal hydrolase isozyme L5 (Homo sapiens), Q9Y5K5 | 0.33% of 330,000 active | purified proteasome/UCH37;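 active means mean of two replicates above 20%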;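 further: 0% = compound-free wells with enzyme and 100% = wells lacking proteasome; stock transfer was 100 nL into about 20 µL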
Target sequence (Q9Y5K5 whole entry, looked up): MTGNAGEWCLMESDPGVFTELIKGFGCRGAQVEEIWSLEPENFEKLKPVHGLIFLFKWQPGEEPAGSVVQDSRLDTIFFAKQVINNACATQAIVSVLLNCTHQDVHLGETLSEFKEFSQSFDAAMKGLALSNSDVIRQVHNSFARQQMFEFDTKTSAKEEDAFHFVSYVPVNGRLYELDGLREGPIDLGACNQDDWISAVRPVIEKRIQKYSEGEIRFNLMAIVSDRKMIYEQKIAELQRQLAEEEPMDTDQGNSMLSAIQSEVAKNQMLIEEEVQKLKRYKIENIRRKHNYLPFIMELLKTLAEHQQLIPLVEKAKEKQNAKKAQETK
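System: Proteasome-associated human UCH37 deubiquitinase; Input: 0.15 nM proteasome in added enzyme buffer; Also added: Ub-AMC substrate from 1 µM stock; Incubation: 30 min compound-proteasome preincubation then 25 min substrate reaction, room temperature; Detection: fluorescence, ex 355 nm, em 460 nm; Read-out: % inhibition of Ub-AMC cleavage fluorescence; Benchmarks: no-proteasome and no-compound wells.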
E coli growth: E. coli growth inhibition, primary screen, OD600. 0.21% of 330,000 active. OD600 absorbance (no concentration beside the values). Escherichia coli growth, 23 h; hits give low values. AID 1053175, 2014;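 active means OD600 absorbance below the run mean of sample wells minus 3.6 SD, in any replicate, cut at about 0.56 in these data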;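 further: stock transfer was 300 nL into about 60 µL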
HNF4A DNA FP: change in binding of human HNF4A to DNA, primary screen, biochemical, fluorescence polarization, FITC-DNA | 1 h | Hepatocyte nuclear factor 4-alpha (Homo sapiens), P41235 | AID 1224865, 2016 | 0.3% of 360,000 active | activity change, % at 10 µM; in the data active means activity change above about 30%, passing the limit was not always enough;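 further: controls were the assay level and a saturating level of protein; the project sought stronger binding though the title names inhibitors; some compounds called inactive have numbers as strong as hits; positive values seem to mean higher polarization but the record does not say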
B2AR ag: beta2AR agonists driving receptor internalization, primary screen, cell-based, FAP fluorogen, flow cytometry. 0.43% of 340,000 active. Am2.2-beta2AR cells; reference of the scale not given here. response, % (no concentration beside the values). Beta-2 adrenergic receptor (Homo sapiens), P07550;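 active means response above a set limit, near 3 SD of response in nonfluorescent compounds, cut at about 42% in these data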;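 further: stock transfer was 100 nL into about 11 µL; a reference agonist was the positive control; negative values mostly stem from fluorescent compounds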
Target sequence (P07550 whole entry, looked up): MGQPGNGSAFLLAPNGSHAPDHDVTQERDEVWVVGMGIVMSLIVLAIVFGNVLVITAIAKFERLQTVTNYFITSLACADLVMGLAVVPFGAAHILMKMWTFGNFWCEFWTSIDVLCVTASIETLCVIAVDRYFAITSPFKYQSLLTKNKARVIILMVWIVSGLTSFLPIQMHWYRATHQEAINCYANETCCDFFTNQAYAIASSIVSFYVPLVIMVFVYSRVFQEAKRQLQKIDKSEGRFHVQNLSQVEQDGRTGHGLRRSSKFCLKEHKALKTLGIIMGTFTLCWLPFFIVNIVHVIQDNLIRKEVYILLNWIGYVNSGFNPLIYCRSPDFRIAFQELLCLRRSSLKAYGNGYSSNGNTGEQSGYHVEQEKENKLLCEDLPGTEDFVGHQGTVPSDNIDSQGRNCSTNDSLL
LANA-H2B inh: blockers of LANA interaction with H2A/H2B – biochemical, FP readout, HTS, primary screen; 0.6% of 320,000 active; AID 2629, 2010; inhibition, % (concentration not given with the values); Protein LANA1 (Human herpesvirus 8 type P (isolate GK18)), Q9QR71; cell-free LANA-H2A/H2B peptide, fluorescence polarization; in the data active means inhibition mostly above about 10%, no sharp cut-off; inactive means mostly below about 6.7%;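 further: stock transfer was 7.5 nL into about 10 µL; 0% = median of vehicle wells and 100% = median of positive control wells; one replicate is shown; the record names a cut of 25% in any replicate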
Vif A3G: inhibitors of Vif binding to APOBEC3G peptide, primary screen, biochemical, TR-FRET, GST-Vif 1-94, biotin-A3G peptide, dose response retest (AID 1117319); TR-FRET GST-Vif / biotin-A3G peptide binding; higher % means a stronger effect; test concentration not given here; strong numbers were not always called active; 0.57% of 260,000 active; inhibition, %, or IC50 in µM where a hit was titrated;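 active means above the screen mean plus three standard deviations and confirmed in dose response; inconclusive means results disagree or hit not tested in dose response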;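 further: Vif residues 1-94 fused to GST binding biotinylated APOBEC3G peptide 110-148; 0% = full assay without inhibitor and 100% = GST in place of GST-Vif; retest series ran down from 100 µM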
Numbers without * were called inactive; i = inactive; ? = inconclusive; nt = no result given; & = joins results of further samples.

Each structure is followed by: B2AR ag, UCH37 inh, Bfl-1 A1 inh, E coli growth, HNF4A DNA FP, Vif A3G, LANA-H2B inh
- CCOC(=O)/C(C#N)=C/c1cn(CCC(=O)O)nc1-c1ccccc1
 : -3, 9.7, 0.5, 0.68, -2.6, nt, 2.1
- CCN(CC)S(=O)(=O)c1ccc(OC)c(N)c1
 : 5, 3.9, 0.5, 0.66, 4.7, 0%, -0.7
- COc1ccc(N2C(=O)C3CCCN3C2c2cccc(OC)c2OC)cc1 (stereo not given)
 : 0, 2.7, 1.3, 0.69, 3.3, 7%, -0.8
- CC(C)(Oc1ccc(F)cc1)C(=O)OCC(=O)c1ccc(S(C)(=O)=O)cc1
 : -2, -1.3, 1.6, 0.71, 0.3, nt, -1.6
- O=C(NCCc1ccccc1F)C1CC(=O)N(c2ccccc2)C1 (stereo not given)
 : -2, 3.5, 0.2, 0.69, 3.2, 3%, 0.9
- O=C(NCC(=O)N1CCN(C(c2ccccc2)c2ccccc2)CC1)c1ccc(Br)o1
 : 2, 4.3, 0.9, 0.7, 5.4, nt, -0.5
- CC(C)(C)OC(=O)N/N=C\c1ccc[nH]1
 : -2, nt, 1.0, nt, 0.0, nt, 1.1
- COc1ccc(C(=O)CSc2nnc(CNC(=O)c3ccc(OC)c(OC)c3)n2C)cc1
 : 3, 4.0, 0.1, 0.75, 0.9, -4%, 2.1
- Nc1c(C(=O)Nc2ccc(F)cc2)nnn1-c1cccc(C(F)(F)F)c1
 : -1, 1.6, -0.2, 0.71, 0.8, -9%, 6.4
- Cc1ccc(CNS(=O)(=O)c2ccc3c(c2)n(C)c(=O)c(=O)n3C)cc1
 : -3, -11, 0.7, 0.7, -0.7, 4%, -11

(cont.)
Each structure is followed by: B2AR ag, UCH37 inh, Bfl-1 A1 inh, E coli growth, HNF4A DNA FP, Vif A3G, LANA-H2B inh
- O=C(C1CCN(S(=O)(=O)c2c(Cl)cccc2Cl)CC1)N1CCCCCCC1
 : 8, 1.1, 0.2, 0.61, -1.1, 3%, -0.9
- COc1ccc(-c2nn(-c3ccccc3)cc2C(=O)N2CCOCC2)cc1
 : -17, 1.2, 0.7, 0.71, -3.2, 17%, -5.1
- CCC1Oc2ccccc2N(CC(=O)NCCN2C(C)CCCC2C)C1=O (stereo not given)
 : -1, 3.3, 1.4, 0.7, -4.0, 9%, 7.1
- C=CCn1c(SCC(=O)c2cccs2)nc2sc(C)c(C)c2c1=O
 : 12, 1.6, 0.1, 0.7, 0.0, -47%, 0.0
- COc1cc(C(=O)Nc2ccc(-c3nc4cc(C)ccc4o3)c(O)c2)cc(OC)c1OC
 : 1, i, 0.4, 0.71, -0.1, -3%, 1.5
- Cc1ccc(Oc2ccc(OCC(=O)NC(C)C(=O)O)cc2)cc1 (stereo not given)
 : -2, 3.7, -0.9, 0.7, 1.6, 2%, 5.3
- Cn1cccc1CC(=O)NNC(=S)NC(=O)c1ccccc1Br
 : -3, 3.8, 0.4, 0.69, -2.8, 16%, 3.0
- CC(C)CN(C(=O)COC(=O)CCCc1c[nH]c2ccccc12)c1c(N)n(Cc2ccccc2)c(=O)[nH]c1=O
 : -7, 0.6, 0.5, 0.67, 1.0, nt, 4.9
- Cc1ccnc(NC(=O)c2cccc(NC(=O)Cc3ccccc3)c2)c1
 : -21, 4.0, -1.6, 0.63, 1.4, nt, 1.6
- Cn1c(Cn2c(=O)sc3ccccc32)nnc1SCc1ccc(F)cc1
 : -14, -0.3, -0.5, 0.71, 2.5, 13%, 0.6

The results go on:
Each structure is followed by: B2AR ag, UCH37 inh, Bfl-1 A1 inh, E coli growth, HNF4A DNA FP, Vif A3G, LANA-H2B inh
- COc1ccc(Cl)cc1S(=O)(=O)N1CCN(CC(=O)C(C)(C)C)CC1
 : -14, 4.0, -0.3, 0.71, -0.7, 2%, 0.0
- C/C(=N\NC(=O)c1ccc(Cn2cc(Br)cn2)o1)c1cccc(NC(=O)C(C)(C)C)c1
 : 2, nt, -0.1, nt, -4.3, -8%, 3.4
- Cc1ccc(C(=O)CN(C(=O)c2ccc(Cl)cc2)N2C(=O)CCC2=O)cc1
 : -8, 2.2, 0.7, 0.71, 3.6, nt, -230
- C=CCNc1cccc(Br)c1
 : 0, 1.0, 1.7, 0.71, 3.7, nt, -3.8
- Cc1onc(-c2ccccc2)c1CNS(=O)(=O)c1cccc(Br)c1
 : -1, -0.9, 1.0, 0.67, -0.2, -4%, 3.4
- Clc1ccc(/C=C/c2nc(Cl)c(-c3ccc(Cl)cc3)c(Cl)n2)cc1
 : 2, nt, -0.3, nt, -0.6, -10%, -1.9
- O=S(=O)(NCc1cccnc1)c1cccn1-c1ncc(C(F)(F)F)cc1Cl
 : -24, 2.2, -0.3, 0.68, -1.4, 14%, -2.6
- CC(=O)Nc1nc2ccc(C(=O)NCCOC(=O)C3CCCCC3)cc2s1
 : -3, 2.8, 0.5, 0.71, 2.5, nt, -6.6
- CCOc1ccc(-n2cc(C(=O)Nc3cccc(Cl)c3)c3cc(OC)c(OC)cc3c2=O)cc1
 : 10, 1.6, 0.6, 0.7, 1.1, 27%, 2.8
- CC1CN(C(=O)CSc2nc(-c3ccccc3)cs2)CC(C)O1 (stereo not given)
 : -4, -2.4, -0.1, 0.74, -0.4, 13%, 5.6

Going on with the list:
Each structure is followed by: B2AR ag, UCH37 inh, Bfl-1 A1 inh, E coli growth, HNF4A DNA FP, Vif A3G, LANA-H2B inh
- CC(=O)Nc1ccccc1C(=O)C(=O)Nc1cccc(C(=O)N2CC(C)CC(C)C2)c1 (stereo not given)
 : -3, 2.0, -0.2, 0.68, -1.3, 7%, 2.7
- COc1ccc(CNS(=O)(=O)NCc2ccc(OC)c(OC)c2)cc1OC
 : -11, 1.9, 0.2, 0.66, 0.1, 9%, -0.7
- Cc1ccc2nc(-c3ccc4c(c3)OCCO4)cn2c1
 : 14, nt, -8.4, nt, 1.0, 0%, -0.2
- CCOc1ccc(S(=O)(=O)N(CC(=O)NC2CCCCC2C)Cc2ccco2)cc1 (stereo not given)
 : 2, 1.1, 0.5, 0.68, 1.4, ?, nt
- COc1ccc(-c2cn3ccc4ccccc4c3n2)cc1
 : 7, -14, -6.5, 0.71, -0.2, nt, -3.5
- Cc1cc(C)nc(OC(C(=O)O)C(OCCc2ccccc2)(c2ccccc2)c2ccccc2)n1 (stereo not given)
 : 4, 1.2, 1.4, 0.65, -1.1, nt, -5.3
- COC(=O)c1c(NC(=O)CCCC(=O)O)sc2c1CCC2
 : 8, -2.8, 0.4, 0.67, 4.2, 10%, 0.0
- CN(C)/C=C1\N=C(c2cccnc2Oc2ccc(Cl)cc2)OC1=O
 : -25, -3.6, 0.7, 0.7, -1.1, nt, 3.9
- O=S1(=O)C=C(Sc2nc3cc(Cl)ccc3o2)c2ccccc21
 : 39, 2.8, ?, 0.67, 0.8, 4%, 1.3
- COc1ccc(C(=O)OCC(=O)Nc2c(C)n(C)n(-c3ccccc3)c2=O)cc1
 : -11, 4.5, -0.4, 0.7, 1.4, nt, 4.9

(further entries)
Each structure is followed by: B2AR ag, UCH37 inh, Bfl-1 A1 inh, E coli growth, HNF4A DNA FP, Vif A3G, LANA-H2B inh
- COc1cccc(NC(=O)C2C3CCC4C(CCC32)C4(Cl)Cl)c1 (stereo not given)
 : 8, 5.4, 0.3, 0.69, -3.2, -2%, -7.0
- COC(=O)c1ccccc1NC(=O)COC(=O)c1ccccc1N=Nc1ccc(N(C)C)cc1
 : 14, 10, -0.1, 0.74, 4.4, -9%, -0.6
- Cc1ccc(-n2ncc3c(N4CCN(c5ccccc5)CC4)ncnc32)c(C)c1
 : 28, 1.1, -0.4, 0.7, 2.4, ?, -6.6
- O=c1c2ccccc2c(-c2ccccc2)nn1Cc1ccc(Cl)cc1
 : 0, 0.1, 0.4, 0.73, -3.5, 4%, 2.9
- Cc1c(CCO)c(=O)n2c([nH]c3ccccc32)c1C#N
 : -13, i, 0.5, 0.68, -0.3, -11%, -2.1
- CC(=O)Oc1ccc(C(=O)Nn2cnnc2)cc1
 : 8, 0.4, 0.9, 0.73, -1.0, -4%, 18*
- Cc1cc(C(F)(F)F)nn1Cc1ccc(C(=O)NCc2ccco2)o1
 : -8, 1.6, -0.2, 0.72, 1.9, 15%, -4.9
- COc1ccc(S(=O)(=O)Nc2ccc(C)cn2)cc1
 : 3, nt, -0.7, nt, 0.0, -11%, 7.6
- CCOc1ccccc1-c1cc(C(=O)Nc2ccc(C(=O)O)cc2)c2ccccc2n1
 : 6, 5.9, -0.6, 0.68, -3.8, 9%, -5.6
- O=C(NCCCN1CCOCC1)c1ccc(Br)cc1Br
 : nt, 0.6, nt, 0.67, nt, ?, nt

New compounds follow:
Each structure is followed by: B2AR ag, UCH37 inh, Bfl-1 A1 inh, E coli growth, HNF4A DNA FP, Vif A3G, LANA-H2B inh
- Cc1cc(O)c(-c2cc(C(=O)Nc3ccc(S(=O)(=O)N4CCOCC4)cc3)[nH]n2)cc1C
 : 7, 2.1, 1.6, 0.7, 0.7, 1%&2%, 0.8
- CCN(CC)C(=O)c1ccccc1NS(=O)(=O)c1ccc(OC)c(C(=O)N2CCOCC2)c1
 : -4, 3.1, 1.7, 0.67, -4.5, nt, 3.4
- CC1CCCC(NC(=O)CSc2n[nH]c(N)n2)C1C (stereo not given)
 : 1, -2.9, -0.6, 0.66, 2.3, 0%, -1.5
- O=C(COC(=O)c1ccc(Cl)nc1)Nc1ccc(S(=O)(=O)N2CCCC2)cc1
 : -7, 3.5, 0.5, 0.71, 0.3, -3%, -1.2
- CC(NC(=O)C(NC(=O)C1CCCN1C(=O)OC(C)(C)C)C(C)C)C(N)=O (stereo not given)
 : 6, 0.4, -0.2, 0.65, 2.6, 11%, -6.5
- Cc1ccccc1NC(=O)Nc1ccc2c(c1)OCO2
 : 4, 5.2, -13, 0.74, -2.9, -9%, -4.6
- CCCC(=O)N(Cc1cc(=O)[nH]c2ccccc12)c1ccc(C)cc1C
 : -5, -0.6, -0.9, 0.65, -1.3, -10%, 1.3
- COCc1ccc(C(=O)NC(C)c2cnn(-c3ccccc3C)c2C)o1 (stereo not given)
 : 0, 0.9, -0.1, 0.67, -3.7, nt, 2.4
- COc1cc(C)c(S(=O)(=O)NCc2cccnc2)cc1C
 : -25, 3.8, 0.7, 0.68, -0.2, nt, -0.1
- CCOc1cc(CNCc2cccs2)cc(Br)c1OCC
 : -3, -0.1, 0.1, 0.69, -2.3, 0%, 0.1
- Cc1ccc(-c2nc(N3CCOCC3)sc2C(=O)N2CCOCC2)cc1
 : 1, 1.6, 0.5, 0.69, 0.1, -6%, 1.6
- CC(C)(C)c1ccc(C(=O)N2CCN(C(=O)C3CCCCC3)CC2)cc1
 : -4, 0.5, 0.4, 0.69, 1.7, -1%, 0.4
- O=C(Nc1cccc(S(=O)(=O)NC2=NCCC2)c1)c1cn(-c2ccccc2)nc1-c1ccc(F)cc1
 : 26, 6.5, 0.1, 0.69, 4.8, nt, 3.5

Screening results as filed in PubChem.
